Vaccinia mCherry: vaccinia inhibition (mCherry reporter); AID 720579; 310,000 compounds, 0.63% hits; Potency, µM (top dose mostly 36.5 µM), for the others: at the highest dose activity change, negative = inhibition, actives largely listed as inhibitors; Vaccinia virus mCherry reporter infection, fluorescence; about a quarter of the inactives have no number; active = well fitted inhibition curve with a large enough effect; inconclusive = small, poorly fitted or top-dose-only effect; inactive = no such curve, though single readings can be large or run the other way; tested in A549 cells; note: nearly all actives have a fitted effect of over 35% in size; inactives centre near -10
Vaccinia Venus: inhibitors of vaccinia virus (Venus reporter); Vaccinia virus Venus reporter expression, fluorescence; Potency, µM (series often up to 36.5 µM), for the others: top-dose activity change, negative = inhibition, most hits filed as inhibitors; 330,000 compounds, 0.46% hits; AID 720580; active means well fitted inhibition curve with a large enough effect; inconclusive means small, poorly fitted or top-dose-only effect; inactive means no such curve, though single readings can be large or run the other way; tested in A549 cells; note: nearly all actives have a fitted effect of over 30% in size; inactives centre near -10
* marks the source's active call; other numbers are inactive results; i = inactive; ? = inconclusive; . = not tested or not shown; & = joins results of further samples; [ ] = dose if it differs, or a comment. % is set by controls: 0 for no effect and ±100 for the full control effect; potency is the fitted concentration of half-maximal effect. This is a random part of the collection (roughly 0.82% active in at least one column).

SMILES	Vaccinia mCherry	Vaccinia Venus
COc1ccc(CN2CCC(C)(Oc3ccc4c(c3)OCO4)C2)c2ccccc12 (centres undefined)	2%	-6%
CC1CCN(CCCCOc2ccc([N+](=O)[O-])cc2)CC1	-8%	-4%
Cc1ccc(-c2cc(C(=O)NC3CCCCC3)no2)cc1	-11%	2%
CCOc1ccccc1NC(=O)C(C)SCc1ccccc1 (centres undefined)	i	-13%
CC1=C(C(=O)OCC(C)C)C(c2cccc(F)c2)N2C(=O)C(C)SC2=N1 (centres undefined)	5%	3%
O=C(CSc1nccc(=O)[nH]1)Nc1ccc(N2CCOCC2)c(Cl)c1	4%	6%
CC(C)COC(=O)N1CCCCC1c1cc(C(=O)Nc2ccccc2)no1 (centres undefined)	8%	-11%
CCOC(=O)C1CCCN(c2c(Nc3cccc(C)c3)c(=O)c2=O)C1 (centres undefined)	-12%	1%
O=C(c1ccccc1)N1CCN(CC(O)Cn2ccc3ccccc32)CC1 (centres undefined)	i	-17%
CSc1nc2ccc(C)cc2c(=O)n1-c1cccnc1	i	-2%
CC(=O)Nc1cc(O)c2nonc2c1O	11µM*	3.5µM*
C=CCn1c(=O)c2ccc(C(=O)NCc3ccccc3)cc2n(Cc2ccccc2Cl)c1=O	-12%	-3%
CCc1nn(C(C)C(=O)NC2CCCCCC2)c(=O)c2cc3occc3n12 (centres undefined)	-5%	1%
C/C(=N\NC(=O)CCc1ccccc1)C1C(=O)c2ccccc2C1=O	?	?
O=C(NCc1ccc(Cl)cc1)C(=O)NCC1CCCN1S(=O)(=O)c1cccs1 (centres undefined)	-15%	-26%
CC(C)N(C(=O)CSc1nnc(NC(=O)c2ccco2)s1)C(C)C	-10%	-2%
COc1ccccc1NS(=O)(=O)c1cccc(NC(=S)NCCN2CCOCC2)c1	-10%	-12%
O=C(Nc1c(C(=O)Nc2cccc(C(F)(F)F)c2)oc2ccccc12)c1cc(=O)c2ccccc2o1	-10%	-10%
Cc1csc2ncc(C(=O)Nc3ccc4c(c3)OCCO4)c(=O)n12	i	-11%
COc1cccc(/C=C/c2nc(C#N)c(N3CCC(C(N)=O)CC3)o2)c1	-9%	-1%
C=CCn1c(SCc2ccc(C(=O)OC)cc2)nnc1-c1sc(N)nc1C	-5%	-21%
CCOC(=O)c1ccc(N2C(=O)c3n[nH]c(-c4cccs4)c3C2c2ccc(CC)cc2)cc1 (centres undefined)	?	?
c1ccc(COc2ccc(CNn3cnnc3)cc2)cc1	0%	?
Cc1cccc(-n2ncc(C(=O)Nc3ccc4c(c3)OCO4)c2C2CCN(C(=O)OC(C)(C)C)CC2)c1	-15%	-4%
COc1ccc(-n2nc(C(=O)NCC(=O)N3CCC4(CC3)OCCO4)c3ccccc3c2=O)cc1Cl	i	-4%

Other entries follow.
SMILES	Vaccinia mCherry	Vaccinia Venus
C#CCNC(=O)C1=C[C@H](C)C[C@H](OCc2ccc(CO)cc2)O1	i	5%
Cc1cccc(CCNC(=O)CCc2c(C)nc3c(-c4ccc(F)cc4)c(C)nn3c2C)c1	-19%	-2%
CCCCN1CC(=O)N2[C@@H]3c4cc(OC)ccc4OC[C@@H]3[C@H](C(=O)OCC)[C@]2(C)C1=O	i	-3%
O=C(c1cnccn1)N1CCN(S(=O)(=O)c2ccc3ccccc3c2)CC1	i	-17%
COc1ccc(C2C3=C(CCCC3=O)N(CC(=O)O)C3=C2C(=O)CCC3)cc1Cl	i	-8%
CC(=O)c1c(C)[nH]c(C(=O)NCCc2cccc(C)c2)c1C	?	?
COc1cccc(NCc2nnc(SCC(=O)N(C)C3CCS(=O)(=O)C3)n2C2CCCCC2)c1 (centres undefined)	-9%	-5%
CC(C)C[C@H](NC(=O)N1CCn2c1nc1ccccc12)C(=O)N[C@@H](Cc1ccccc1)C(=O)O	-4%	-5%
Cn1nc(C(=O)NCc2ccccc2Cl)c2c1-c1ccccc1S(=O)(=O)C2	-10%	-8%
COC(=O)c1ccccc1NC(=O)NCc1ccc2c(c1)CCN2C(=O)c1ccccc1	-27%	-14%
Cc1cc(=O)n2nc(N3CCC(C(=O)NCCCOC(C)C)CC3)sc2n1	-6%	3%
COc1ccc(C(=O)Nc2ccc(C3CC3(Cl)Cl)cc2)cc1 (centres undefined)	-14%	?
O=C(O)CCCCCN1C(=O)/C(=C/c2cn(-c3ccccc3)nc2-c2cccs2)SC1=S	-28%	0%
Cc1nc2c(ncn2-c2ccccc2)c(=O)n1NC(=O)CN1CCN(C)CC1	i	0%
CCCCCCCCCCCCCCSCC(=O)O	-24%	-19%
CC(C)CCSc1nnc2n(-c3ccccc3)c(=O)c3c4c(sc3n12)CC(C)CC4 (centres undefined)	-13%	-10%
COc1cccc2c(=O)cc(C)n(CC(=O)Nc3ccc(Br)cc3)c12	i	15%
CCC(=O)N1CCc2cc(Br)cc(S(=O)(=O)CCC(=O)NCCc3ccccc3Cl)c21	-10%	-11%
CCc1cc2c(=O)c(-c3cnn(-c4ccccc4)c3)c(C)oc2cc1OCC(=O)Nc1cccc(C)c1	i	-15%
CCCCCC(=O)N1C[C@@H](O)[C@H](n2cc(C3CC3)nn2)C[C@@H]1c1ccc(Cl)cc1	7%	-20%
O=C(CC(Sc1ccccc1)c1cccs1)c1ccco1 (centres undefined)	-2%	-6%
CCOC(=O)Cn1nc(-c2ccccc2)c2cnc3ccc(C)cc3c21	-11%	-23%
COc1ccc(N/C(N)=N/c2nc(CSc3ccc(Cl)cc3)cc(=O)[nH]2)cc1	i	-4%
CCN1CCN(c2ccc(NC(=O)c3ccc([N+](=O)[O-])o3)cc2Cl)CC1	11µM*	?
O=C(c1ccco1)N1CCN(C(=O)c2cc(-c3ccncc3)nc3ccc(Br)cc23)CC1	.	15%

Carrying on.
SMILES	Vaccinia mCherry	Vaccinia Venus
O=S1(=O)N[C@@H](Cc2ccccc2)COc2cc(Br)ccc21	i	-17%
Cc1cccc(-c2cnc(C(O)c3cc(C)cc(C)c3)[nH]2)c1 (centres undefined)	i	-1%
CCc1cccc(-n2c(=O)c3cccnc3n2CC(=O)Nc2c(C)cc(C)cc2C)c1	3%[7.34 µM]	-1%[7.34 µM]
CC(C)Cc1ccc(-c2cc3nc(NCc4cccc(Cl)c4)ccn3n2)cc1	-2%	-10%
NC(=O)CC(NC(=O)c1ccc(Br)cc1)c1ccc(N2CCN(c3ccccc3)CC2)c([N+](=O)[O-])c1 (centres undefined)	-23%	-23%
CCCn1c(=O)c(C(=O)Nc2ncccc2C)c(O)c2ccccc21	i	-7%
Cc1cc(C)n(CC(=O)NNC(=O)c2cncc(Br)c2)n1	-16%	-9%
COCCN(C(=O)CSc1nc2ccccc2c(=O)n1C(C)COC)c1c(N)n(Cc2ccccc2)c(=O)[nH]c1=O (centres undefined)	-7%	1%
O=C(NCC1CCCO1)c1c[nH]c2ccc(S(=O)(=O)Nc3cccc(C(F)(F)F)c3)cc2c1=O (centres undefined)	-1%	-6%
CCN1CCN(C(=O)c2cc(S(=O)(=O)N3CCCCC3)ccc2Cl)CC1	i	-6%
COc1cc(OC)cc(-c2oc(=O)c3cc(OC)c(OC)cc3c2C(F)(F)F)c1	-20%	-12%
CC1CCCC(C)N1CCCNC(=O)C1CCCN(S(=O)(=O)N2CCCCC2)C1 (centres undefined)	?	-5%
CC(C)CNc1oc(-c2ccccc2Cl)nc1C#N	-29%	-20%
COc1cccc(/C=C/c2ccncc2)c1OC	.	-25%
COc1ccc(-n2nc3c(N4CCC(C(=O)NCCc5ccco5)CC4)nnc(C)c3c2C)cc1	-24%[7.34 µM]	-19%[7.34 µM]
CC(C)NC(=O)CN1C(=O)c2ccccc2S1(=O)=O	-2%	-16%
Cc1cccc(C(=O)OC(C)C(=O)NC2CCCc3ccccc32)c1O (centres undefined)	-22%	-13%
COc1ccc(OC)c(S(=O)(=O)N2CCCCC2C(=O)N2CCN(c3ccccn3)CC2)c1 (centres undefined)	16%	-12%
CCC(=O)N/N=C(\C)CC(=O)Nc1cccc([N+](=O)[O-])c1	-11%	0%
O=S(=O)(Nc1ccc2c3c(cccc13)CC2)c1ccccc1	-21%	-18%
CCn1cc(CN2CCC(n3nccc3NC(=O)c3ccc(OC)cc3)CC2)cn1	i[7.34 µM]	-13%[7.34 µM]
COCCCNc1ncnc2sc(C(=O)N3CCOCC3)c(C)c12	-16%	-4%
C/C(=N\NC(=O)COc1ccccc1)c1ccc(O)cc1	-19%	-13%
CCOC(=O)C(=O)c1c(-c2ccccc2)nc2ccccn12	-8%	-7%
C1CCc2nnc(C3CC3)n2CC1	-2%	-2%

Further structures follow:
SMILES	Vaccinia mCherry	Vaccinia Venus
O=[N+]([O-])c1ccc2[nH]ncc2c1	-8%	-11%
COc1ccc(C(C(=O)NC2CCCC2)N(C(=O)c2snc(C(N)=O)c2N)c2ccccc2OC)cc1OC (centres undefined)	-9%	-10%
CCOC(=O)N1CCN(C(=O)c2cc(COc3ccc(OC)cc3Cl)on2)CC1	-16%	-28%
Cc1nc(C)c(-c2ccc(SCC(=O)Nc3ccc(Cl)c(Cl)c3)nn2)s1	-26%	-23%
CCCCCSc1nc2c(c(=O)[nH]c(=O)n2C)n1C(C)C	-21%	?
CC1(C)Cc2c(ccc3ccccc23)C2=C(C(=O)N3CCCC3)C(=O)C(=O)N21	-13%	-12%
CCOC(=O)Cn1nc(C)c(NC(=O)COc2ccccc2)c1C	-7%	-10%&-7%
COc1ccc(F)cc1S(=O)(=O)NCC1CCCO1 (centres undefined)	i	-10%
CN(CCOc1ccccc1)C(=O)c1ccc2c(c1)OCO2	i	-10%
O=C(c1ccccc1)c1cccn1CC(=O)N1CCN(c2ccccc2)CC1	?	-20%
C/C(N)=C(/C#N)C(=O)CSc1nc(C2CCCCC2)n(-c2ccccc2)n1	-12%	-1%
OC[C@@H]1CN(Cc2ccncc2)C[C@H](n2cnc3c(NC4CC4)ncnc32)O1	-20%	-8%
Cn1c(COc2nnc(-c3ccc(Cl)cc3)c3ccccc23)nc2ccccc21	?	-11%
CCN(CC)CCCNC(=S)N1CCN(c2nc3ccccc3n2CC)CC1	9%	-11%
COCCn1c(SCC(=O)Nc2cccc(C)c2C)nc2c(oc3ccccc32)c1=O	-1%	1%
CCC(C)(C)n1nnnc1C(c1ccc(C)cc1)N1CCSCC1 (centres undefined)	-17%	-13%
O=S(=O)(NCCCN1CCOCC1)c1ccc(Cl)cc1	-23%	0%
CCOC(=O)C1=C(CS(=O)(=O)c2ccccc2)NC(=O)NC1c1ccccc1OCC (centres undefined)	i	-7%
CCOC(=O)N1CCC2(CC1)C(C#N)=C(N)OC1=C2C(=O)CC(C)(C)C1	-17%	-15%
CCN(CC)c1ccc(NC(=O)COc2ccc(-n3cnnn3)cc2)cc1	?	-9%
CCOC(=O)C1=C(c2ccccc2)N=c2s/c(=C\c3ccc(O)cc3)c(=O)n2C1c1cccs1 (centres undefined)	54%[activator]	i
O=C(CN1CCCC(O)C1)N1c2ccccc2Sc2ccc(C(F)(F)F)cc21 (centres undefined)	.	-5%
COC1=C(N)C(=O)c2nc(C)ccc2C1=O	i	4%
Cc1ccc(CNC(=O)C(OC(=O)c2cccs2)C(C)C)cc1 (centres undefined)	?	-5%
Cc1ccc(NC(=O)CN2CCN(Cc3ccccc3)CC2)cc1Cl	-28%	-19%

The listing continues.
SMILES	Vaccinia mCherry	Vaccinia Venus
Brc1ccc(CSc2nccn2-c2ccccc2)cc1	.	?
COc1ccc(NC(=O)CSc2nnc(CNC(=O)c3ccco3)n2-c2ccccc2OC)cc1	i	-6%
Cc1cc2nc(-c3ccc(Cl)cc3)c(CC3CCCCC3)n2c(C)c1Br	34%[activator]	4%
COc1ccc(NC(=O)C(c2ccc(C#N)cc2)n2c(=O)c(-c3ccco3)nc3ccccc32)cc1 (centres undefined)	-11%	-8%
CN1CCN(c2ccc(NC(=O)c3ccc(C(F)(F)F)cc3)cn2)CC1	-15%	-3%
Cc1ccccc1N1CCN(Cc2c[nH]c3ccccc23)CC1	-17%	-25%
O=C(Cc1ccccc1[N+](=O)[O-])NCc1ccc(Cl)cc1	-3%	-5%
Cc1ccc(-c2nc(C3CCCN(S(=O)(=O)c4ccc(C)cc4)C3)no2)cc1 (centres undefined)	-26%	-21%
COc1ccc(CN=C(NS(=O)(=O)c2cccs2)SC)cc1	-2%	-13%

13 of these compounds in a different format.
compound,Vaccinia mCherry,Vaccinia Venus
CSc1nc2ccc(C)cc2c(=O)n1-c1cccnc1,i,-2%
CC(=O)Nc1cc(O)c2nonc2c1O,11µM*,3.5µM*
C=CCn1c(=O)c2ccc(C(=O)NCc3ccccc3)cc2n(Cc2ccccc2Cl)c1=O,-12%,-3%
CCc1nn(C(C)C(=O)NC2CCCCCC2)c(=O)c2cc3occc3n12 (centres undefined),-5%,1%
C/C(=N\NC(=O)CCc1ccccc1)C1C(=O)c2ccccc2C1=O,?,?
O=C(NCc1ccc(Cl)cc1)C(=O)NCC1CCCN1S(=O)(=O)c1cccs1 (centres undefined),-15%,-26%
CC(C)N(C(=O)CSc1nnc(NC(=O)c2ccco2)s1)C(C)C,-10%,-2%
COc1ccccc1NS(=O)(=O)c1cccc(NC(=S)NCCN2CCOCC2)c1,-10%,-12%
O=C(Nc1c(C(=O)Nc2cccc(C(F)(F)F)c2)oc2ccccc12)c1cc(=O)c2ccccc2o1,-10%,-10%
Cc1csc2ncc(C(=O)Nc3ccc4c(c3)OCCO4)c(=O)n12,i,-11%
COc1cccc(/C=C/c2nc(C#N)c(N3CCC(C(N)=O)CC3)o2)c1,-9%,-1%
C=CCn1c(SCc2ccc(C(=O)OC)cc2)nnc1-c1sc(N)nc1C,-5%,-21%
CCOC(=O)c1ccc(N2C(=O)c3n[nH]c(-c4cccs4)c3C2c2ccc(CC)cc2)cc1 (centres undefined),?,?

High-throughput results (PubChem)
